# Bioassay records (PubChem)
# SARS PLpro yeast = SARS-CoV PLP inhibition in yeast. 330,000 tested, 0.19% active. Potency, µM (series often up to 32.9 µM), for inactives: at the top dose activity, positive = growth rescue. S. cerevisiae expressing SARS-CoV PLpro, growth rescue; control for the full effect not named in the record; active means well fitted rising curve with a large enough effect; inconclusive means small, poorly fitted or top-dose-only effect; inactive means no such curve, though single readings can be large or run the other way; note: 0% is about no effect; nearly all actives have a fitted effect of over 55% in size; growth read by luminescence after 48 h
# Marburg entry inh = blocks Marburg virus binding to or entry into cells; Marburg virus pseudotyped entry inhibition, cell reporter; control for the full effect not named in the record; about a third of the inactives were read at about 46 µM; 300,000 tested, 1.8% active; Potency, µM (titrated, usually from 37.8 µM), without a hit: top-dose activity change, negative = inhibition, hits mostly inhibitors; active = well fitted inhibition curve with a large enough effect; inconclusive = small, poorly fitted or top-dose-only effect, or effect the other way; inactive = flat fitted curve, though single readings scatter; tested in HEK293 cells; about a fifth of its hits are not listed in these tables; note: % is set by controls: 0 for no effect and ±100 for the full control effect; luciferase read-out
# Cruzain inh Det = inhibitors of Trypanosoma cruzi cruzain with detergent | purified cruzain, Z-FR-AMC fluorescence, 0.01% Triton | 200,000 tested, 0.43% active | Potency, µM, inactives show max response, negative = inhibition, hits mostly inhibitors | AID 1478;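 note: plate controls were neutral wells for no effect and buffer without enzyme for full effect; nearly all actives have a fitted effect of over 40% in size; top concentration of the series not given in the record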
# Target sequence (P25779 123-467 limits assumed): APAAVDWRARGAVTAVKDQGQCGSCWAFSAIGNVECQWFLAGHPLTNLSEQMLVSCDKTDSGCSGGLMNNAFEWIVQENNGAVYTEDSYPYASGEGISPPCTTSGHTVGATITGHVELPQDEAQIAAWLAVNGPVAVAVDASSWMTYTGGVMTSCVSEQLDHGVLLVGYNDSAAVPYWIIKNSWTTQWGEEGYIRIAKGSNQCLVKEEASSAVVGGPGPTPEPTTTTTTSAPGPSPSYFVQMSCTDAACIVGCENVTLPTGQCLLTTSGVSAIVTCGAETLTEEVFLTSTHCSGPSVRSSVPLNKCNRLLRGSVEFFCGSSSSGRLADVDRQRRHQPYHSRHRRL
#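 Read-out: AMC fluorescence (360 nm excitation, 450 nm emission), four reads over 2 min, first-to-third difference used. Conditions: cruzain 1.5 nM, Z-FR-AMC 2 uM, pH 5.5 acetate, 5 mM DTT, 0.01% Triton X-100.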
# NS1 inh = blocks influenza NS1 protein function; 270,000 tested, 0.4% active; AID 2326; S. cerevisiae slowed by influenza A NS1, growth recovery by OD600; Potency, µM (highest dose often 46.1 µM), inactives show top-dose activity, positive = more growth; active means well fitted rising curve with a large enough effect; inconclusive means small, poorly fitted or top-dose-only effect; inactive means no such curve, though single readings can be large or run the other way; note: nearly all actives have a fitted effect of over 50% in size
#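 Growth recovery, yeast-based: influenza A NS1 expressed in S. cerevisiae causes slow growth, and suppressors are detected by OD600. The parent strain without NS1 is used as positive control.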
# Cruzain inh noDet = blocks cruzain activity in detergent-free assay; 200,000 tested, 2.3% active; P25779; purified cruzain, Z-FR-AMC fluorescence, no detergent; Potency, µM, inactives show max response, negative = inhibition, most hits filed as inhibitors;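 note: plate controls were enzyme without inhibitor for no effect and buffer without enzyme for full effect; nearly all actives have a fitted effect of over 40% in size; top concentration of the series not given in the record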
#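 Detergent-free condition (0.00005% Triton X-100) in acetate buffer pH 5.5 with DTT. 1.5 nM enzyme and compound were pre-mixed 15 min, then 2 uM Z-FR-AMC substrate added; reaction progress from fluorescence change between first and third reads (60 s).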
# Lassa entry inh = blocks Lassa virus binding to or entry into cells | Lassa virus pseudotype entry inhibition, cell reporter; control for the full effect not named in the record | Potency, µM (highest dose often 37.9 µM), for inactives: at the highest dose activity change, negative = inhibition, most hits filed as inhibitors | 300,000 tested, 1.2% active; active means well fitted inhibition curve with a large enough effect; inconclusive means small, poorly fitted or top-dose-only effect, or effect the other way; inactive means flat fitted curve, though single readings scatter; tested in HEK293 cells; note: % is set by controls: 0 for no effect and ±100 for the full control effect; nearly all actives have a fitted effect of over 50% in size; luciferase read-out
# * hit, by the source's call; ? = inconclusive; . = no result given; & = joins results of further samples; [ ] = another dose, or the depositor's remark. Unless noted, calls come from the whole dose curve; as a rule, active = well fitted curve in the direction sought with a large enough effect; inconclusive = small, poorly fitted or top-dose-only effect, or another doubt; inactive = no such curve, though single readings can be large; an effect the other way counts as inactive or inconclusive. Potency is the fitted concentration of half-maximal effect.
Structure | SARS PLpro yeast | Marburg entry inh | Cruzain inh Det | NS1 inh | Cruzain inh noDet | Lassa entry inh
COc1cc(NC(=O)CCN2CCN(c3ccccc3)CC2)cc(OC)c1 | . | . | -0.4% | . | 11% | -23%[46.1 µM]
COC(=O)C/C=C/[C@@H](C)[C@H](OC)c1c(Br)ccc2c1OCO2 | . | ? | -0.8% | . | -5% | .
COCCN1C(=O)N[C@@H](c2cccc(C(F)(F)F)c2)C(C(C)=O)=C1C | . | 11%&11%[14.2 µM] | -1.4% | . | 12% | .
O=P1(O)Oc2c(c(-c3ccccc3)cc3ccc4ccccc4c23)-c2c(-c3ccccc3)cc3ccc4ccccc4c3c2O1 | . | 28%&28%[14.2 µM] | 25µM* | . | -4% | .
COc1ccc(-c2nc(-c3ccccc3)c(NC(C)C)o2)cc1 | . | ? | 0.2% | . | -11% | .
COC(=O)C1(C(=O)OC)C[C@@H]2CON=C2[C@H]1c1ccccc1 | . | ? | -0.6%&4.4% | . | 7%&-7% | .
C=CCOC(=O)N[C@@H](c1ccc(Br)cc1)C(C(C)=O)C(C)=O | . | -28%&-28%[14.2 µM] | 4.2% | . | -12% | .
C=CCOC(=O)NC(c1ccc(F)c(F)c1)C(C(C)=O)C(=O)OC (stereo not drawn) | . | 26%&26%[14.2 µM] | 3.8% | . | -7% | .
COc1ccc(-c2nc(-c3ccccc3)oc2Nc2ccc3ccccc3c2)cc1 | . | ? | -3.3% | . | -17% | .
OC[C@@H](O)[C@@H](O)CCc1ccccc1 | . | ? | 3.5% | . | -1% | .
O=C(OCC(F)(F)F)[C@H](O)[C@@H](O)C(=O)OCC(F)(F)F | . | ? | 0.4% | . | 0% | .
COC(=O)N[C@@H](c1cccc(C)c1)[C@@H](C)[N+](=O)[O-] | . | -17%&-17%[14.2 µM] | 2.4% | . | -3% | .
COC(=O)CC1c2ccccc2C=C(C)N1C(=O)OC (stereo not drawn) | . | 9%&9%&9%[14.2 µM] | -0.2% | . | -7% | .
COc1cccc([C@@H]2Oc3ccc(Br)cc3C[C@H]2OC(=O)NS(=O)(=O)c2ccc(C)cc2)c1 | . | ? | 0.4% | . | -7% | .
COc1cccc([C@@H]2Oc3ccc(Br)cc3C(=O)[C@H]2OC(=O)N[C@H]2CCCc3ccccc32)c1 | . | -11%[14.2 µM] | 2.0% | . | ? | .
COCCN1C(=O)N[C@@H](CCc2ccccc2)C(C(=O)OC)=C1C | . | ? | 1.3% | . | -1% | .
Cc1ccc(C(O)C2=CCCC2=O)cc1 (stereo not drawn) | . | ? | 1.0% | . | -3% | .
C=CCOC(=O)N[C@H](/C(C(=O)OC)=C(\C)NCc1ccccc1)c1cccc(OC)c1 | . | -13%[14.2 µM] | 5.3% | . | -12% | .
C=CCOC(=O)N[C@H](c1cccc(C(F)(F)F)c1)C(C(C)=O)C(C)=O | . | -5%[14.2 µM] | 1.7% | . | -3% | .
COC(=O)NC(c1ccc2c(c1)OCO2)C(C(=O)OC)C(=O)OC (stereo not drawn) | . | 25%&25%[14.2 µM] | 1.7% | . | 0% | .

# Next section (three carried over from the part before).
Structure | SARS PLpro yeast | Marburg entry inh | Cruzain inh Det | NS1 inh | Cruzain inh noDet | Lassa entry inh
C=CCOC(=O)N[C@H](/C(C(=O)OC)=C(\C)NCc1ccccc1)c1cccc(OC)c1 | . | -13%[14.2 µM] | 5.3% | . | -12% | .
C=CCOC(=O)N[C@H](c1cccc(C(F)(F)F)c1)C(C(C)=O)C(C)=O | . | -5%[14.2 µM] | 1.7% | . | -3% | .
COC(=O)NC(c1ccc2c(c1)OCO2)C(C(=O)OC)C(=O)OC (stereo not drawn) | . | 25%&25%[14.2 µM] | 1.7% | . | 0% | .
COC(=O)[C@@H](O)CC[C@@H](C)Cc1c(OC)c(OC)c(C)c(OC)c1OC | . | -18%&-18%[14.2 µM] | 2.4% | . | 4% | .
COc1ccc2c(c1)O[C@H](c1ccc3c(c1)OCO3)[C@@H](OC(=O)NCc1ccc3c(c1)OCO3)C2=O | . | 0%&0%[14.2 µM] | -0.1% | . | 2% | .
Cc1ccc([S+](=O)([O-])N(c2ccccc2)[S+](=O)([O-])C(F)(F)F)cc1 | . | 16%&16%[14.2 µM] | 1.9% | . | -13% | .
COCOc1cc(OC)ccc1C(=O)/C=C/c1ccc2c(c1)OCO2 | . | -29%&-29%[14.2 µM] | 4.2%&-1.9% | . | 4%&-5% | .
COc1ccc(C2=CC3=C(Br)C(=O)C(C)(OC(=O)c4cnc5ccccc5n4)C(=O)C3=CO2)cc1 (stereo not drawn) | . | -14%&-14%[14.2 µM] | 1.3% | . | -2% | .
CC[C@H](C)[C@@H](NC(=O)O[C@@H]1C(=O)c2ccc(OC)cc2O[C@H]1c1ccc2c(c1)OCO2)C(=O)OC | . | ? | -2.6% | . | 0% | .
O=S(=O)(CCc1ccccc1)c1ccccc1 | . | 26%&26%&26%[14.2 µM] | 4.0% | . | -8% | .
c1ccc(CNc2oc(-c3ccccc3)nc2-c2cccc3ccccc23)cc1 | . | -27%&-27%&-27%[14.2 µM] | -2.1% | . | 16µM* | .
COC(=O)NC(/C=C/c1ccccc1)C(C(C)=O)C(=O)OC (stereo not drawn) | . | ? | 3.1% | . | -2% | .
COc1ccc2c(c1)c(CC(=O)NCc1ccc3c(c1)OCO3)c(C)n2C(=O)c1ccc(Cl)cc1 | . | ? | 2.5% | . | -4% | .
C=C(C)C(O)/C=C/c1ccc(C(F)(F)F)cc1 (stereo not drawn) | . | ? | 1.1%&1.0% | . | -6%&-13% | .
CC1(OC(=O)c2cnc3ccccc3n2)C(=O)C=C2C=C(C3CC3)OC=C2C1=O (stereo not drawn) | . | 7%&7%[14.2 µM] | -1.4% | . | -8% | .
C=CCOC(=O)N[C@H](/C(C(=O)OC)=C(\C)NCc1ccccc1)c1ccc(Br)cc1 | . | 7%[14.2 µM] | 3.8% | . | -5% | .
C=C(COC)C1=CCC(C(=O)OC)(C(=O)OC)[C@@H](C[N+](=O)[O-])c2ccccc21 | . | 60%&60%&60%&60%[14.2 µM] | 2.8%&-3.3% | . | 6%&-8% | .
O=C1CCCC=C1[C@@H](O)CCOC(c1ccccc1)(c1ccccc1)c1ccccc1 | . | 29%[14.2 µM] | -0.2% | . | 2% | .
CC(C)(C)Nc1oc(-c2ccccc2)nc1-c1cccc2ccccc12 | . | -4%&-4%[14.2 µM] | 3.9% | . | -10% | .
CC(C)OC(=O)[C@@H]1CC[C@H](C)[C@@H](CCC[C@@H]2CC=C[C@H](CC#N)O2)O1 | . | -26%&-26%[14.2 µM] | 6.4% | . | 0% | .
COc1cccc([C@@H]2Oc3ccc(OC)cc3C(=O)[C@H]2OC(=O)N[C@H]2CCCc3ccccc32)c1 | . | ? | -0.6% | . | -6% | .
COC(=O)[C@H](COC(C)(C)C)NC(=O)O[C@@H]1C(=O)c2cc(OC)ccc2O[C@H]1c1cccc(OC)c1 | . | ? | -1.3% | . | -3% | .
COC(=O)N[C@@H](CCc1ccccc1)[C@]1(C(C)=O)CCCC1=O | . | 12%[14.2 µM] | -1.6% | . | -3% | .

# Structures shown so far containing a tert-butyl group (two):
Structure | SARS PLpro yeast | Marburg entry inh | Cruzain inh Det | NS1 inh | Cruzain inh noDet | Lassa entry inh
CC(C)(C)Nc1oc(-c2ccccc2)nc1-c1cccc2ccccc12 | . | -4%&-4%[14.2 µM] | 3.9% | . | -10% | .
COC(=O)[C@H](COC(C)(C)C)NC(=O)O[C@@H]1C(=O)c2cc(OC)ccc2O[C@H]1c1cccc(OC)c1 | . | ? | -1.3% | . | -3% | .

# Going on with the list.
Structure | SARS PLpro yeast | Marburg entry inh | Cruzain inh Det | NS1 inh | Cruzain inh noDet | Lassa entry inh
COC(=O)N[C@@H](c1cccc(F)c1)C(C(C)=O)C(=O)OC (stereo partly drawn) | . | 13%&52%&13%[14.2 µM] | 2.6% | . | -6% | .
CC(=O)O[C@@H]1C(CO[Si](C)(C)C(C)(C)C)=C(Br)C(=O)[C@@H]2O[C@]12C | . | -10%[14.2 µM] | 1.6% | . | -8% | .
CC1(C)OCC([C@H](O)C2=CCCCC2=O)CO1 | . | ? | 1.4% | . | 28% | .
COCOc1c2c(c(OCOC)c3c(OCOC)cccc13)/C(=N/NS(C)(=O)=O)C1=C2CCCC1 | . | 1%[14.2 µM] | 1.7% | . | -8% | .
COC(=O)N1C(C)=Cc2ccccc2C1CC(C)=O (stereo not drawn) | . | -9%&-9%&-9%&-9%[14.2 µM] | -1.8% | . | -6% | .
CCCCCCCc1cc2ccccc2c(=O)o1 | . | 13%&13%[14.2 µM] | -3.8% | . | -7% | .
COC(=O)[C@H](COC(C)(C)C)NC(=O)O[C@H]1C(=O)c2ccc(OC)cc2O[C@@H]1c1ccc2c(c1)OCO2 | . | -14%&-14%&-14%[14.2 µM] | -1.0% | . | 0% | .
COc1cccc([C@@H]2Oc3ccc(OC)cc3[C@H](O)[C@H]2O)c1 | . | -7%[14.2 µM] | -2.8% | . | 9% | .
O=C(O)[C@H]1CCCN(CCC=C(c2ccccc2)c2ccccc2)C1 | . | -7%&-7% | -2.5% | . | 7% | .
CC#CCC1(C(=O)OC)C(=O)NC[C@H]1c1ccccc1 (stereo partly drawn) | . | ? | 3.4%&4.9%&2.3% | . | -1%&-9%&1% | .
COc1ccc2c(c1)O[C@H](c1ccc3c(c1)OCO3)[C@@H](OC(=O)NCCOc1ccccc1)C2=O | . | 5%&5%[14.2 µM] | -3.0% | . | -7% | .
C=C(C)C(=O)CP(=O)(OCC)OCC | . | -3%&-3%[14.2 µM] | 5.1% | . | 20% | .
CC(C)(C(O)c1ccc([N+](=O)[O-])cc1)[N+](=O)[O-] (stereo not drawn) | . | ? | 1.3% | . | -3% | .
COC(=O)C1=C(C(=O)OC)[C@@H]2N(Cc3ccccc3)c3ccccc3[C@@]23C[C@@H](C(=O)OC)N(C(=O)NCc2ccccc2)C3=C1 | . | 16%[14.2 µM] | 0.1% | . | 9% | .
C[C@H](NCCc1ccc(O)cc1)[C@@H](O)c1ccc(O)cc1 | . | -4%&-23%&-4% | -0.9% | . | 8% | .
Cn1cc(NC(=O)c2cc(NC(=O)c3cc(NC=O)cn3C)cn2C)cc1C(=O)NCCC(=N)N | 1% | -5% | . | -11% | . | .
CC1CC(OC(=O)CN2CCCCC2)CC(C)(C)C1 (stereo not drawn) | 0% | 5% | . | 5% | . | .
CCN1C(=NCCc2cccs2)N[C@@H](CCc2ccccc2)[C@H](C(=O)NCCc2cccs2)[C@H]1C | -7% | ? | . | 8% | . | .
COc1cc2c(cc1OC)C1O[C@](CCCCN3C(=O)c4ccccc4C3=O)(C2)OC2=C1C(=O)CC(C)(C)C2 | ? | -9%[14.2 µM] | . | -6% | . | .
CC(C)C[C@H]1COc2cccc(F)c2S(=O)(=O)N1 | . | ? | . | . | . | 3%[46.1 µM]
COc1ccc(O[C@H]2C=C[C@@H](c3ccccc3)O[C@H]2COC(=O)CCC(C)=NO[C@H](C)c2cn([C@@H]3COC[C@@H]3O)nn2)cc1 | . | -3%[14.2 µM] | . | . | . | 26%[14.3 µM]

# The list is partial; the hit share may differ from the screen's.
